Cruzain inh Det = blocks cruzain activity in presence of Triton detergent | purified cruzain, Z-FR-AMC fluorescence, 0.01% Triton | actives 0.43% (n = 200,000) | Potency, µM, for the others: max response, negative = inhibition, most hits filed as inhibitors | P25779;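 also: plate controls were neutral wells for no effect and buffer without enzyme for full effect; nearly all actives have a fitted effect of over 40% in size; top concentration of the series not given in the record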
Target sequence (P25779 123-467 limits assumed): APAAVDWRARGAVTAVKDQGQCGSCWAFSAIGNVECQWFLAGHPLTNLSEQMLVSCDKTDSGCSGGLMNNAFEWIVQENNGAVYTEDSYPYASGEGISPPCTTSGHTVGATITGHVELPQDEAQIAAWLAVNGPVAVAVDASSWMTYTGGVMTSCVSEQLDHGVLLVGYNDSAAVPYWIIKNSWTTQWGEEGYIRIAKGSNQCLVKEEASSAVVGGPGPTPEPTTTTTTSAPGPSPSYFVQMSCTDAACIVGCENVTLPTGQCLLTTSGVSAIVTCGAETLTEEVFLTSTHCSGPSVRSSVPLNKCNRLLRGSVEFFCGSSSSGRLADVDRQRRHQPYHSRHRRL
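Cruzain (1.5 nM) preincubated 15 min at RT with compound in 100 mM sodium acetate pH 5.5, 5 mM DTT, 0.01% Triton X-100. Reaction started with 2 uM Z-FR-AMC; AMC fluorescence (ex 360/em 450 nm) change over 60 s gave rate.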
Marburg entry inh = blocks Marburg virus binding to or entry into cells | Marburg virus pseudotyped entry inhibition, cell reporter; control for the full effect not named in the record; about a third of the inactives were read at about 46 µM | Potency, µM (titrated, usually from 37.8 µM), for the others: top-dose activity change, negative = inhibition, actives largely listed as inhibitors | actives 1.8% (n = 300,000) | AID 540276; active = well fitted inhibition curve with a large enough effect; inconclusive = small, poorly fitted or top-dose-only effect, or effect the other way; inactive = flat fitted curve, though single readings scatter; tested in HEK293 cells; about a fifth of its hits are not listed in these tables; also: % is scaled to controls: 0 for no effect and ±100 for the full control effect; luciferase read-out
NS1 function inh = blocks influenza NS1 protein function | S. cerevisiae slowed by influenza A NS1, growth recovery by OD600 | Potency, µM (top dose mostly 46.1 µM), without a hit: at the top dose activity, positive = more growth | actives 0.4% (n = 270,000); active means well fitted rising curve with a large enough effect; inconclusive means small, poorly fitted or top-dose-only effect; inactive means no such curve, though single readings can be large or run the other way; also: nearly all actives have a fitted effect of over 50% in size
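Growth recovery, yeast-based: influenza A NS1 expressed in S. cerevisiae causes slow growth, and suppressors are detected by OD600. The parent strain without NS1 is used as positive control.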
SARS PLpro yeast = blocks SARS-CoV papain-like protease in a yeast assay. Potency, µM (series often up to 32.9 µM), without a hit: at the highest dose activity, positive = growth rescue. S. cerevisiae expressing SARS-CoV PLpro, growth rescue; control for the full effect not named in the record. actives 0.19% (n = 330,000). AID 485353; active means well fitted rising curve with a large enough effect; inconclusive means small, poorly fitted or top-dose-only effect; inactive means no such curve, though single readings can be large or run the other way; also: 0% is about no effect; nearly all actives have a fitted effect of over 55% in size; growth read by luminescence after 48 h
RE007 growth inh = less growth of the S. pombe RE007 Vpr strain; S. pombe RE007 Vpr strain, BacTiter-Glo ATP luminescence, 24 h; control for the full effect not named in the record; Potency, µM (titrated, usually from 92.2 µM), without a hit: at the highest dose activity change, negative = less growth; actives 0.21% (n = 360,000); AID 651644; active = well fitted falling curve with a large enough effect; inconclusive = small, poorly fitted or top-dose-only effect; inactive = no such curve, though single readings can be large or run the other way;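 also: % is scaled to controls: 0 for no effect and ±100 for the full control effect; nearly all actives have a fitted effect of over 50% in size; the assay follows cell death caused by Vpr and the record does not say whether a fall means rescue or toxicity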
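Fission yeast RE007 carrying one integrated HIV-1 vpr copy, seeded at OD 0.01 in PMG+AL medium with 23 nL pinned compound. Grown 24 h at 30 degrees; viability read by BacTiter-Glo luminescence after 5 min.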
StopGo reporter = FMDV 2A StopGo reporter, luciferase signal. human cells with a luciferase reporter of 2A StopGo recoding; control for the full effect not named in the record. Potency, µM (doses to about 57.9 µM), for the others: top-dose signal change, negative = less light. actives 1.2% (n = 410,000). AID 1159524; active = well fitted falling curve with a large enough effect; inconclusive = small, poorly fitted or top-dose-only effect; inactive = no such curve, though single readings can be large or run the other way; tested in HEK293T cells; also: % is scaled to controls: 0 for no effect and ±100 for the full control effect; nearly all actives have a fitted effect of over 45% in size; luciferase light after 4 h
Lassa entry inh = inhibitors of Lassa virus binding or cell entry | Lassa virus pseudotype entry inhibition, cell reporter; control for the full effect not named in the record | Potency, µM (top dose mostly 37.9 µM), without a hit: at the highest dose activity change, negative = inhibition, hits mostly inhibitors | actives 1.2% (n = 300,000) | AID 540256; active means well fitted inhibition curve with a large enough effect; inconclusive means small, poorly fitted or top-dose-only effect, or effect the other way; inactive means flat fitted curve, though single readings scatter; tested in HEK293 cells; also: % is scaled to controls: 0 for no effect and ±100 for the full control effect; nearly all actives have a fitted effect of over 50% in size; luciferase read-out
Cruzain noTriton = inhibitors of Trypanosoma cruzi cruzain without detergent; P25779; purified cruzain, Z-FR-AMC fluorescence, no detergent; Potency, µM, for the others: max response, negative = inhibition, usual class: inhibitors; actives 2.3% (n = 200,000); AID 1476;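 also: plate controls were enzyme without inhibitor for no effect and buffer without enzyme for full effect; nearly all actives have a fitted effect of over 40% in size; top concentration of the series not given in the record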
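Detergent-free condition (0.00005% Triton X-100) in acetate buffer pH 5.5 with DTT. 1.5 nM enzyme and compound were pre-mixed 15 min, then 2 uM Z-FR-AMC substrate added; reaction progress from fluorescence change between first and third reads (60 s).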
The depositor's hits bear a star; ? = inconclusive; · = not tested or not shown; [ ] = another dose, or the depositor's remark. Unless noted, calls follow the shape of the dose curve; as a rule, active = well fitted curve in the direction sought with a large enough effect; inconclusive = small, poorly fitted or top-dose-only effect, or another doubt; inactive = no such curve, though single readings can be large; an effect the other way counts as inactive or inconclusive. Potency is read from the fitted curve at half-maximal effect.

no.	mol	Cruzain inh Det	Marburg entry inh	NS1 function inh	SARS PLpro yeast
1	COc1ccc(N2Cc3cccc(C(=O)Nc4ccc(C(C)C)cc4)c3C2=O)cc1	-5.5%	?	·	·
2	Cc1cccc(OCC(=O)N(Cc2ccco2)C2CCS(=O)(=O)C2)c1C (centres undefined)	·	·	14%	1%
3	COc1cc(CC(=O)N(C)CC(=O)Nc2ccc(Cl)c(C(F)(F)F)c2)cc(OC)c1OC	·	?	11%	3%
4	Nc1ccc(N2CCCCC2)c(Cl)c1	·	9%[46.1 µM]	3%	3%
5	O=c1c2ccccc2nc(/C=C/c2ccc(O)cc2)n1-c1ccc(O)cc1	·	·	-1%	-2%
6	O=C(c1ccc(=O)n(Cc2ccccc2)n1)N1CCN(C/C=C/c2ccccc2)CC1	-1.6%	-1%	-18%	7%
7	Cc1cccc(Oc2ncnc3oc(-c4ccccc4)cc23)c1C	-10%	9%	2%	8%
8	CCOc1ccc2c(c1)OC(c1ccccc1)(C(F)(F)F)NC2=O (centres undefined)	-0.7%	5%	21%	-21%
9	CCc1cc2c(=O)n(Cc3ccco3)c(SCC(=O)N(C)C3CCS(=O)(=O)C3)nc2s1 (centres undefined)	·	2%[46.1 µM]	·	-2%
10	Cc1ccc(Nc2nc(CSc3nnc(-c4ccccc4C)n3C)cs2)cc1	-8.8%	-11%	-16%	-31%
11	Oc1ccccc1-c1cc(C(F)(F)C(F)F)[nH]n1	-5.0%	?	-24%	-10%
12	COc1ccc(N2C(=NC(C)=O)SC3CS(=O)(=O)CC32)cc1OC (centres undefined)	3.1%	2%	5%	4%
13	Cc1cccc(-n2cc(CN(C)Cc3nccn3C)c(-c3cccc(F)c3)n2)c1	·	·	-1%	0%
14	Fc1ccccc1CSc1nncn1NC/C=C/c1ccccc1	0.2%	6%	-7%	-9%
15	OCCN1CN=C(Nc2nc3ccccc3o2)NC1	1.5%	-3%[46.1 µM]	?	-8%

no.	RE007 growth inh	StopGo reporter	Lassa entry inh	Cruzain noTriton
1	·	5%	26%[46.1 µM]	-21%
2	-12%	0%	·	·
3	-3%	?	·	·
4	5%	-15%	-29%[46.1 µM]	·
5	17%	-19%	·	·
6	-14%	?	?	-6%
7	10%	11%	-3%	-5%
8	0%	15%	-5%	1%
9	3%	-9%	?	·
10	·	-2%	?	1%
11	0%	·	-12%	-23%
12	0%	-18%	25%	0%
13	-16%	-18%	·	·
14	-2%	28%	-12%	0%
15	-2%	-4%	4%	1%

Next entries.
no.	mol	Cruzain inh Det	Marburg entry inh	NS1 function inh	SARS PLpro yeast
16	CCc1ccc(CN(C)Cc2nc(Cc3ccccc3)no2)nc1	·	·	-3%	1%
17	CCC[n+]1cn(/C(C(=S)Nc2cccc(Cl)c2C)=C(/[O-])c2ccc(OC)c(OC)c2)c2ccccc21	·	-6%[46.1 µM]	·	-2%
18	Cn1c(=O)c2c(nc(SCC(=O)N3CCOCC3)n2C)n(C)c1=O	·	9%[46.1 µM]	3%	4%
19	Cc1cn2c(=O)cc(COC(=O)c3ccc(NC(=O)COc4ccccc4F)cc3)nc2s1	-1.5%	·	·	·
20	Cc1cc(C)cc(N2CCN(C(=O)N3CCOCC3)CC2)c1	7.7%	-6%	-3%	0%
21	CC1CCCN(S(=O)(=O)c2ccc(NC(=O)c3cccc(-n4cnnn4)c3)cc2)C1 (centres undefined)	1.0%	-20%	11%	-1%
22	Cc1ccc(C2c3[nH]c4ccccc4c3CCN2C(=O)c2ccc(N(C)C)cc2)cc1 (centres undefined)	-0.3%	·	·	·
23	CCOC(=O)N1CCN(C(=O)C2CC(c3ccccc3OC)=NO2)CC1 (centres undefined)	3.6%	7%	-8%	8%
24	Cc1ccnc2nc(C(=O)OCC(=O)NCCc3ccccc3)nn12	-2.2%	-5%	6%	17%
25	Cc1cccc(-n2c(O)c(C=Nc3ccccc3-c3n[nH]c(=S)[nH]c3=O)c3ccccc3c2=O)n1	·	·	19%	-1%
26	O=C1CCCN1CCCN1C(=O)N[C@@H](Cc2ccccc2)C1=O	-0.3%	10%	0%	-1%
27	C=CCn1c(O)c(C(C)=NCc2cc(OC)cc(OC)c2)c(=O)[nH]c1=O	0.5%	?	-7%	-7%
28	COc1ccc(CNC(=O)c2cccc(NC(=O)N3CCSc4ncccc43)c2)cc1	-17%	·	·	·
29	CCc1cc2c(NC3CCCC3)ncnc2s1	·	·	-4%	-2%
30	Cc1cc(NS(=O)(=O)c2ccc(NC(=O)CSc3nnc(-c4ccco4)n3C)cc2)nc(C)n1	-1.9%	3%	6%	-1%

no.	RE007 growth inh	StopGo reporter	Lassa entry inh	Cruzain noTriton
16	-7%	-22%	·	·
17	9%	-24%	?	·
18	12%	12%	?	·
19	·	-9%	-1%[46.1 µM]	-7%
20	5%	-8%	0%	12%
21	8%	-18%	-28%	-2%
22	·	-17%	?	?
23	8%	21%	24%	3%
24	-4%	1%	15%	-2%
25	17%	-21%	·	·
26	-1%	6%	2%	-1%
27	11%	-24%	-23%	-1%
28	·	?	0%[46.1 µM]	?
29	-18%	25µM*	·	·
30	7%	16%	-3%	4%

A different layout for two compounds above.
19	Cc1cn2c(=O)cc(COC(=O)c3ccc(NC(=O)COc4ccccc4F)cc3)nc2s1
28	COc1ccc(CNC(=O)c2cccc(NC(=O)N3CCSc4ncccc43)c2)cc1

| screen / no. | 19 | 28 |
| --- | --- | --- |
| Cruzain inh Det | -1.5% | -17% |
| Marburg entry inh | · | · |
| NS1 function inh | · | · |
| SARS PLpro yeast | · | · |
| RE007 growth inh | · | · |
| StopGo reporter | -9% | ? |
| Lassa entry inh | -1%[46.1 µM] | 0%[46.1 µM] |
| Cruzain noTriton | -7% | ? |

Ordered by heavy-atom count (rising): some entries from above.
no.	mol	Cruzain inh Det	Marburg entry inh	NS1 function inh	SARS PLpro yeast
20	Cc1cc(C)cc(N2CCN(C(=O)N3CCOCC3)CC2)c1	7.7%	-6%	-3%	0%
23	CCOC(=O)N1CCN(C(=O)C2CC(c3ccccc3OC)=NO2)CC1 (centres undefined)	3.6%	7%	-8%	8%
17	CCC[n+]1cn(/C(C(=S)Nc2cccc(Cl)c2C)=C(/[O-])c2ccc(OC)c(OC)c2)c2ccccc21	·	-6%[46.1 µM]	·	-2%

no.	RE007 growth inh	StopGo reporter	Lassa entry inh	Cruzain noTriton
20	5%	-8%	0%	12%
23	8%	21%	24%	3%
17	9%	-24%	?	·

(list continues)
no.	mol	Cruzain inh Det	Marburg entry inh	NS1 function inh	SARS PLpro yeast
31	CCOc1cccc2sc(N(CCCN(C)C)C(=O)c3ccc(S(=O)(=O)N4CCc5ccccc5C4)cc3)nc12	·	·	14%	1%
32	CCOC(=O)Cc1csc(/N=C/c2c(O)n(-c3ccc(C)c(C)c3)c(=O)c3ccccc23)n1	-4.8%	3%	-2%	?
33	COc1ccc2oc(=O)cc(-c3cc4cccc(OC)c4o3)c2c1	·	16%[46.1 µM]	3%	10%
34	N#C/C(=C(/O)CN1C(=O)c2ccccc2C1=O)c1nc2ccccc2[nH]1	-4.4%	5%	-70%	-1%
35	CCC1(CC)C(=O)C(C)(C)C(=O)OC1c1cccs1 (centres undefined)	5.2%	1%	12%	-4%
36	CCn1c(SCC(=O)NCCOc2ccccc2)nc2ccccc2c1=O	-1.6%	2%	-52%	0%
37	COc1ccc(CCNc2ncnc3nc[nH]c23)cc1OC	1.8%	·	-68%	7%
38	COc1ccc(CCNC(=O)c2coc3ccccc3c2=O)cc1	·	-2%[46.1 µM]	-9%	11%
39	CCOC(=O)c1cc(NC(=O)/C=C\C(=O)O)ccc1Cl	·	?	6%	-2%
40	CN(C)c1cccc(C(=O)N(Cc2ccccc2)Cc2ccccc2)c1	·	·	-72%	-12%
41	CC1=NN(C(N)=S)C(=O)C1N=Nc1ccc(O)cc1 (centres undefined)	·	?	6%	-1%
42	O=C(CSc1ccccn1)Nc1nonc1[N+](=O)[O-]	·	·	-81%	-16%
43	O=C(Cc1ccsc1)Nc1cc(F)ccc1F	·	-1%[46.1 µM]	-5%	-1%
44	O=C(c1ccccc1Cl)N1CCN(c2ccccn2)CC1	5.7%	-7%	3%	-3%
45	COc1ccc(NC(=O)c2ccc3c(=O)n4nc(Nc5ccccc5C)sc4nc3c2)cc1	5.4%	·	·	·
46	Cn1c(CNc2ccc(Cl)cc2)nnc1SCc1ccccc1	0.2%	1%	-171%	-23%
47	CSCCC(NS(=O)(=O)c1ccccc1)C(=O)OCc1cc(=O)oc2cc(O)ccc12 (centres undefined)	·	-21%	·	5%
48	Nc1nc(-c2ccccc2)c(CCCOc2ccc([N+](=O)[O-])cc2)c(=O)[nH]1	·	5%	·	·

no.	RE007 growth inh	StopGo reporter	Lassa entry inh	Cruzain noTriton
31	15%	0%	·	·
32	-6%	-11%	3%	?
33	-3%	-26%	2%[46.1 µM]	·
34	-11%	12%	2%	-11%
35	-2%	?	16%	-8%
36	11%	?	0%	-4%
37	9%	25µM*	·	-2%
38	-7%	-18%	-27%	·
39	-6%	6%	-15%	·
40	11%	1%	·	·
41	-18%	3%	?	·
42	?	32µM*	·	·
43	-16%	36%[activator]	2%	·
44	3%	-13%	3%	4%
45	·	-21%	7%[46.1 µM]	11%
46	-6%	-4%	1%	10%
47	22%	-4%	-22%	·
48	12%	?	-2%	·

Screens from PubChem BioAssay.
